Compound activity: PubChem BioAssay, SRMLSC
H5N1 CPE: MDCK cell protection from H5N1 avian flu; cytopathic effect, luminescence, 72 h; active compounds read high; no value below 0 was filed and about half of the inactive calls have no number; reference of the scale not given here; inhibition, % at 50 µM; actives 0.07% (n = 96,000); in the data active = inhibition above about 25%
An asterisk follows results filed as active; i = inactive. Not all compounds are listed; count on the stated rates, not on these rows.

#	molecule	H5N1 CPE
1	O=C1NC2NC(=O)N(C(Cc3ccccc3)C(=O)O)C2N1 (configuration not stated)	1.9
2	CCOC(=O)C(CC)Sc1nc2c(cnn2-c2ccccc2)c(=O)[nH]1 (configuration not stated)	0.3
3	CCOc1cc(S(=O)(=O)NC2CCCCCC2)ccc1F	i
4	Clc1cccc(CNc2nnnn2-c2ccccc2)c1	0.8
5	CCOc1ccccc1-n1c(SCC(=O)N2CCOCC2)nnc1-c1ccccn1	0.3
6	Cc1n[nH]c(C)c1S(=O)(=O)Nc1ccc2c(c1)OCCO2	i
7	Cc1ccnc(NC(=O)CCCOc2cc(=O)n(C)c3ccccc23)c1	2.5
8	CCOCCCNC(=O)CC1Oc2ccc(C)cc2NC1=O (configuration not stated)	i
9	CCOC(=O)C(O)(c1ccc(N(CC)C(=O)OC)cc1)C(F)(F)F (configuration not stated)	0.8
10	Cc1cccc(OCC(=O)O/N=C(\N)c2ccc(Cl)cc2)c1	i
11	CSc1nnc(C)c(=O)[nH]1	0.2
12	Cc1ccc(SCC(=O)NCc2cccnc2)cc1	0.7
13	COc1cccc(-n2nnc3c(=O)n(Cc4ccc(Br)cc4)cnc32)c1	i
14	CCCSc1nnc(NC(=O)c2nc(SC)ncc2Cl)s1	15
15	CC(=O)Nc1cccc(-c2csc(Nc3cc(C)ccn3)n2)c1	8.2
16	O=C(Cn1c(=O)n(CCCC(=O)NC2CCCC2)c(=O)c2ccccc21)NCCC1=CCCCC1	0.5
17	COc1ccc(C2CC(c3ccccc3)Nc3nc(NC(=O)c4ccco4)nn32)cc1 (configuration not stated)	i
18	COc1cccc2c1OC1(C)CC2N(C(=O)c2ccco2)C(=S)N1c1ccc(F)cc1 (configuration not stated)	3.5
19	C/C(=N/Nc1nc(C)cc(-c2ccccc2)n1)c1ccco1	1.4
20	O=C(c1cccnc1)N(Cc1ccccc1)c1ccccc1	2.4
21	COC(=O)c1nc2n(n1)C(c1ccc(OC)c(OC)c1)C(C(=O)OC1CCCCC1)=C(C)N2 (configuration not stated)	1.0
22	O=C(CCN1C(=O)c2ccccc2C1=O)NC(=S)Nc1cccc(Cl)c1	i
23	CN1CCN(C2=C(Cl)C(=O)N(CCc3ccccc3)C2=O)CC1	0.1
24	O=c1cc(CSc2ccccc2)[nH]c(=S)[nH]1	0.5
25	COc1cccc(NC(=O)CN(c2cccc(F)c2)S(C)(=O)=O)c1	1.6
26	COCCn1c(SCc2cnc(-c3ccccc3)s2)nnc1-c1ccncc1	i
27	Cc1nn(Cc2c(F)c(F)c(F)c(F)c2F)c(C)c1NC(=O)c1ccc(COc2ccccc2Cl)o1	i
28	CCS(=O)(=O)N1CCCC(C(=O)N2CCc3ccccc3C2)C1 (configuration not stated)	0.7
29	COC(=O)C(O)(CC(=O)Nc1cccc(SC)c1)C(F)(F)F (configuration not stated)	i
30	CN1CCN(S(=O)(=O)c2ccc3c(c2)NC(=O)C2CCCN32)CC1 (configuration not stated)	1.7

Continued, starting with the last 5 of the part before.
#	molecule	H5N1 CPE
26	COCCn1c(SCc2cnc(-c3ccccc3)s2)nnc1-c1ccncc1	i
27	Cc1nn(Cc2c(F)c(F)c(F)c(F)c2F)c(C)c1NC(=O)c1ccc(COc2ccccc2Cl)o1	i
28	CCS(=O)(=O)N1CCCC(C(=O)N2CCc3ccccc3C2)C1 (configuration not stated)	0.7
29	COC(=O)C(O)(CC(=O)Nc1cccc(SC)c1)C(F)(F)F (configuration not stated)	i
30	CN1CCN(S(=O)(=O)c2ccc3c(c2)NC(=O)C2CCCN32)CC1 (configuration not stated)	1.7
31	Cc1ccccc1OCC(=O)Nc1sc(C(=O)Nc2cccc(C)c2C)c(C)c1C#N	i
32	CO/N=C(/CS(=O)(=O)c1ccc(C)cc1)c1ccc(OC)cc1	0.1
33	Cc1ccc(S(=O)(=O)Nc2nonc2C)cc1	i
34	Cc1cccn2c(/C=N/OCc3cccc(F)c3)c(-c3ccc(Cl)cc3)nc12	0.9
35	Cc1occc1-c1nnc(SCC(=O)NCCc2ccccc2)n1C(C)c1ccccc1 (configuration not stated)	0.3
36	Cc1ccc(C(=O)NNC(=O)OC(C)(C)C)c(Cl)c1	i
37	O=C(NCc1ccccc1)N(Cc1nc2ccccc2c(=O)[nH]1)C1CCCC1	i
38	CCOC(=O)c1cccnc1SCC(=O)NC(C)CC (configuration not stated)	i
39	FC(F)(F)c1cccc(Cn2nnnc2-c2cccc(C(F)(F)F)c2)c1	1.6
40	CC(C)(C)c1nnc2sc(SCCN3C(=O)c4ccccc4C3=O)nn2c1=O	i
41	Cc1cc(=O)oc(C)c1C(=O)NCC1CCCO1 (configuration not stated)	i
42	CC(C)(O)C#Cc1ccc(C(=O)N2CCN(C(=O)c3ccco3)CC2)cc1	0.2
43	CCOC(=O)C1=C(CSc2n[nH]c(N)n2)NC(=O)NC1C (configuration not stated)	0.1
44	Cc1cc(NC(=O)CCC2COc3ccccc3O2)no1 (configuration not stated)	i
45	C=CCn1c(Oc2ccc(C(=O)OC)cc2)nc2c1c(=O)n(C)c(=O)n2C	1.9
46	Cc1ccc(/C=N/n2c(C)n[nH]c2=S)o1	i
47	Cc1csc2ncc(C(=O)N3c4ccccc4CC3C)c(=O)n12 (configuration not stated)	0.6
48	CC(C)CC1NC(=S)N(C2CCCCC2)C1=O (configuration not stated)	i
49	O=c1oc(/C=C/c2ccco2)nc2sc3c(c12)CCC3	3.7
50	Cc1ccc(OCc2ccc(C(=O)Nc3nccs3)o2)cc1C	i
51	O=C1CC(c2ccccc2)Cc2nc(NCc3ccco3)ncc21 (configuration not stated)	2.1
52	O=C(NCC(c1cccnc1)N1CCOCC1)c1ccc2c(c1)OCO2 (configuration not stated)	1.5
53	O=C(NCCCN1CCOCC1)[C@@H]1CSC2c3ccccc3C(=O)N21 (some centres not stated)	i
54	O=C(CCCCCN1C(=O)c2ccccc2C1=O)Nc1ccccc1	1.0
55	O=C1CC(c2ccco2)CC2=C1C1c3ccccc3C(=O)N1c1ccccc1N2 (configuration not stated)	3.4
56	CC(C)COc1ccc(C(=O)N(Cc2ccco2)C2CCS(=O)(=O)C2)cc1 (configuration not stated)	0.2
57	Brc1cccc(-c2nnc3sc(CNC4CCCC4)cn23)c1	2.5
58	CC1C(=O)CC(c2ccco2)NC1c1ccco1 (configuration not stated)	i
59	COc1ccccc1-c1n[nH]c(=S)o1	0.1
60	Cc1cc(-c2nnc3n2N=C(c2ccc(-c4ccccc4)cc2)CS3)n[nH]1	i
61	COC(=O)c1c(CSc2cccc(C)c2)noc1C(=O)NCc1ccco1	i
62	Cc1ccc(C(=O)O/N=C(\N)c2cccc([N+](=O)[O-])c2)cc1	i
63	CC(C)c1nnc(NC(=O)C2c3ccccc3Oc3ccccc32)s1	0.0
64	COC(=O)Nc1ccc(S(=O)(=O)N2c3ccccc3CCC2C)cc1 (configuration not stated)	7.1
65	O=C(CSc1nnc(-c2ccncc2)n1Cc1ccco1)Nc1nc(-c2ccccc2)cs1	i
66	O=C(CSc1nnnn1-c1ccccc1)N1CCCc2ccccc21	0.2
67	CCOC(=O)c1c(C2COc3ccccc3O2)csc1NC(=O)c1ccco1 (configuration not stated)	i
68	O=C(CCS(=O)(=O)Cc1ccccc1)N1CCN(c2ccccc2)CC1	1.4
69	CC1Cc2ccccc2N1CC(=O)Nc1ccc2c(c1)OC(F)(F)O2 (configuration not stated)	0.4
70	Cc1ccc(Cn2c(SCCN3CCCCC3)nc3c2c(=O)n(C)c(=O)n3C)cc1	0.9
71	CCOc1ccccc1NC(=O)CCc1ccc(C)o1	i
72	CCN(CC)Cc1csc(C(N)=O)c1	0.2
73	CCCn1c(N2CCC(Cc3ccccc3)CC2)nc2c1c(=O)[nH]c(=O)n2C	i
74	COC(=O)c1sc(S(=O)(=O)NCc2ccccc2)c(C(=O)OC)c1C	2.9
75	Cc1cc(C)c2c(N)c(C(=O)NCC3CCCCC3)sc2n1	i
76	CCOc1ccc2nc(NC(=O)C3CCN(c4cnccn4)CC3)sc2c1	0.7
77	O=C(c1cc2cc(Cl)ccc2oc1=O)N1CCOCC1	0.3
78	Cc1cc(=O)[nH]c(/N=C(\N)Nc2cccc3ccccc23)n1	0.5
79	C/C(N)=C(/C#N)C(=O)CSc1nc2cc(Cl)ccc2s1	0.2
80	COC(=O)c1ccccc1NC(=O)C(CCS(C)(=O)=O)NC(C)=O (configuration not stated)	0.3
81	COc1cccc(/C=N/c2oc(-c3ccccc3)cc2C#N)c1O	0.1
82	COCC(=O)N(Cc1cc2ccccc2[nH]c1=O)c1ccccc1OC	1.0
83	COc1ccc(C(=O)c2oc3ccc(OC)cc3c2N)cc1	i
84	COc1ccc(CN(CCCN2CCOCC2)C(=O)Nc2ccccc2)cc1OC	i
85	COc1cc(C2c3c(oc4cc(C)c(C)cc4c3=O)C(=O)N2c2cc(C)ccn2)ccc1O (configuration not stated)	0.5
86	CCOC(=O)c1c(-c2cccs2)csc1NC(=O)CCCC(=O)O	1.1
87	CC(N=c1ccccn1C(=O)Nc1cccc(C(F)(F)F)c1)c1ccco1 (configuration not stated)	i
88	CC(C)(C)c1ccc(OCC(O)CSc2ncn[nH]2)cc1 (configuration not stated)	i
89	COCCSc1ccccc1C(=O)Nc1nncs1	i
90	Nc1ncn(C(=O)c2ccco2)n1	0.3

In another format: results already given
81	COc1cccc(/C=N/c2oc(-c3ccccc3)cc2C#N)c1O
  H5N1 CPE: 0.1
82	COCC(=O)N(Cc1cc2ccccc2[nH]c1=O)c1ccccc1OC
  H5N1 CPE: 1.0
83	COc1ccc(C(=O)c2oc3ccc(OC)cc3c2N)cc1
  H5N1 CPE: i

Next section
#	molecule	H5N1 CPE
91	COc1ccc(CNC(=O)c2c(O)c3cccc4c3n(c2=O)CCC4)cc1OC	i
92	COc1cc(OC)cc(C(=O)OCc2cc3ccccc3[nH]c2=O)c1	0.1
93	Cc1ccc(C2CC(c3ccco3)n3nc(N)nc3N2)cc1 (configuration not stated)	0.2
94	O=C(NCCc1ccccc1)c1ccc([N+](=O)[O-])cc1	0.9
95	O=C(c1ccc(Cn2cc(Br)cn2)o1)N1N=C(C(F)F)CC1(O)C(F)F (configuration not stated)	i
96	Cc1c(-c2cccs2)[n+](=O)c2c(n1[O-])CCCC2	0.1
97	O=[N+]([O-])c1ccc(C2C3C(c4ccccc4)=NC4(CCCCC4)N32)cc1 (configuration not stated)	5.4
98	CCOC(=O)c1[nH]c(C)c(C(=O)NC)c1C	2.3
99	CC1=CC(C)(C)NC(=S)N1c1ccc2ccccc2c1	i
100	CCCOc1ccc(CSC(CC(=O)O)C(=O)O)cc1 (configuration not stated)	0.1
101	COc1ccccc1N=c1oc2c(OC)cccc2cc1C(=O)NCc1ccco1	0.2
102	COc1ccc(CC(=O)OCc2cc3ccccc3[nH]c2=O)cc1	0.1
103	COc1cc(OC)cc(C(=O)Nc2nc3ccccc3[nH]2)c1	i
104	CC1=CC(C)(C)N=C(NC#N)N1	i
105	CCCc1nc(SCC(=O)N2CCC(Cc3ccccc3)CC2)c2c(=O)n(C)c(=O)n(C)c2n1	2.2
106	c1ccc(-c2noc(COc3ccc4c(c3)OCO4)n2)cc1	i
107	Cc1c(N=C2C(=O)Nc3ccccc32)c(=O)n(-c2ccccc2)n1C	0.8
108	CC(C)(O)P(C)(=O)c1ccccc1 (configuration not stated)	i
109	COc1ccc(NC(=O)CSc2nnc(C3CCCCC3)o2)c(OC)c1	i
110	N/C(Cc1cccs1)=N\OC(=O)COc1ccccc1Cl	i
111	Cc1ccc(-c2nc(CS(=O)CC(=O)NCCN(CC(C)C)CC(C)C)c(C)o2)cc1 (configuration not stated)	i
112	Cn1c(Cn2c(=O)sc3ccccc32)nnc1SCc1ccc(F)cc1	i
113	COc1cc(C)c(N)cc1C(C)C	i
114	Cc1cccc(OCc2nnc(SCC(=O)Nc3sc(C)c(C)c3C#N)n2C)c1	i
115	COc1ccc(CN(C(=O)c2oc3ccccc3c2C)C2CCS(=O)(=O)C2)cc1 (configuration not stated)	0.4
116	COc1cc(S(=O)(=O)NC2CCCC2)ccc1Cl	0.9
117	Cc1ccnc(NC(=O)CCc2c(C)nc3ncnn3c2C)c1	i
118	Fc1ccc(Cn2nnnc2CN2CCc3ccccc3C2)cc1	i
119	O=C(Nc1ccc(C(F)(F)F)cc1)c1cccn(Cc2ccc3c(c2)OC(F)(F)O3)c1=O	i
120	COc1cc(/C=C2\SC(=S)N(Nc3ccccc3)C2=O)cc(OC)c1OC	i

Rewritten as labelled records: part of the list above.
102. COc1ccc(CC(=O)OCc2cc3ccccc3[nH]c2=O)cc1
  H5N1 CPE: 0.1

103. COc1cc(OC)cc(C(=O)Nc2nc3ccccc3[nH]2)c1
  H5N1 CPE: i

The list continues.
#	molecule	H5N1 CPE
121	COC(=O)C1=C(C)NC(=O)/C1=C\c1cc(C)n(-c2ccccc2C)c1C	0.6
122	COc1ccc(Cl)cc1N(C)C(=O)CCNC(=O)Cn1cnc2ccccc2c1=O	1.8
123	O=C(NCc1ccccc1)C12CC3CC(CC(C3)C1)C2	0.1
124	CC(=O)N(c1ccc2oc(=O)sc2c1)S(=O)(=O)c1cccs1	0.5
125	COc1cc2c(cc1NC(=O)C(c1ccccc1)c1ccccc1)CCCC2	i
126	CC(=O)Oc1ccc2occ(C(=O)c3cccs3)c2c1	2.9
127	CC1(C)OC(=O)C(=CNn2cnc3ccccc3c2=O)C(=O)O1	i
128	CC(=O)Oc1ccc(CCC(C)OC(C)=O)cc1 (configuration not stated)	i
129	CCOC(=O)c1sc2nc3n(c(=O)c2c1C)CCCCC3	1.1
130	CC(C)C(=O)Nc1cccc(C(=O)Nc2ccccc2C(=O)O)c1	2.0
131	CCCCn1nc2cc(C(=O)N(CC)c3ccc(OC)cc3)ccc2c1OCC	2.0
132	CCOC(=O)c1c(NC(=O)COC)sc(C(C)=O)c1C	0.1
133	Brc1ccc(-c2nnc(-c3ccc4c(c3)OCO4)o2)o1	i
134	O=C(CCSCCC(=O)N1CCCC1)N1CCCC1	i
